eIF4H FP inh – inhibitors of RNA binding by human eIF4H; Q15056; AID 2012; inhibition, % at 35 µM; 290,000 tested, 0.94% active; eIF4H fluorescence polarization binding assay;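 active means 50% or more with normal probe brightness, or confirmed in later tests; inconclusive means above 50% with abnormal brightness, or retests that disagree; inactive means below 50% or failed in later tests; about a fifth of its hits are not listed in these tables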;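 further: calls also rest on retests at 20 µM and on dose response follow-up; 0% = protein and probe with vehicle and 100% = probe without protein; strong numbers were not always called active; many hits fall short of the cut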
PABP FP inh – blocks human PABP binding to poly(A) RNA | inhibition, % at 35 µM | 290,000 tested, 1% active | fluorescence polarization | AID 2014;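 active means 50% or more with normal probe brightness, or confirmed in later tests; inconclusive means above 50% with abnormal brightness, or retests that disagree; inactive means below 50% or failed in later tests; about a fifth of its hits are not listed in these tables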;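 further: calls also rest on retests at 20 µM and on dose response follow-up; controls were probe without protein and protein plus probe with vehicle; some compounds called inactive have numbers as strong as hits; many hits fall short of the cut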
Target sequence (P11940 whole entry, looked up): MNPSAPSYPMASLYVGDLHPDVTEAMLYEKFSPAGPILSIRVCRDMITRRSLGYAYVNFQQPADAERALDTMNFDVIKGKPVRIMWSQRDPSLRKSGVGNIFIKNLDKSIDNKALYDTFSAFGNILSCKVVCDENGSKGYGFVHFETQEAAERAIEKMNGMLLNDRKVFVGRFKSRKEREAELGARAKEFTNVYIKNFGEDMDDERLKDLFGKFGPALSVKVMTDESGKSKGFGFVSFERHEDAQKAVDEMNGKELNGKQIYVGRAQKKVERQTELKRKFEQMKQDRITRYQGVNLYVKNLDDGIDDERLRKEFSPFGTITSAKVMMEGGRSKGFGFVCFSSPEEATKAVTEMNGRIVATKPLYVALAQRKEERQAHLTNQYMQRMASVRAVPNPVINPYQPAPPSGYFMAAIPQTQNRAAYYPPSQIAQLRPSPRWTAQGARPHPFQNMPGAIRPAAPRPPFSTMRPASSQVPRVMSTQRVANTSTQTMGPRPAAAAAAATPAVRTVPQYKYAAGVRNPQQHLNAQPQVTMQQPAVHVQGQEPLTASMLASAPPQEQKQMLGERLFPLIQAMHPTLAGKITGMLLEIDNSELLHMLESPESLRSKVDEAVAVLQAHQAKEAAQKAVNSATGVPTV
MT1-MMP act inh – inhibitors of human MT1-MMP activation. HT1080 RFP-PRO-GFP cells, GFP/RFP ratio fluorescence, overnight; percent of plate control window, DMSO zero. 360,000 tested, 0.061% active. GFP/RFP ratio change, % at 20 µM. P50281;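 active means GFP/RFP ratio change of at least 30% with cell ATP level not reduced by more than half and red fluorescence within 50% of control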; further: strong numbers were not always called active
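Material: RFP-PRO-GFP reporter HT1080 cells. Dosing: single-point 20 µM compound, 1% DMSO. Controls: DMSO and RFP-L50D-GFP cell wells. Timing: cells overnight before dosing, compound overnight, 37 °C, 5% CO2. Measure: GFP/RFP fluorescence ratio.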
UUG fidelity – alters start codon recognition fidelity in yeast | 350,000 tested, 0.13% active | AID 602363 | activity score, % at 18.7 µM | S. cerevisiae UUG-firefly luciferase reporter, luminescence/redox ratio;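 active means replicate mean at a twofold rise or more, about +100% in these data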;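 further: firefly luciferase made from a UUG start codon reports start codon fidelity; reporter light over untreated wells divided by growth signal over untreated wells; some hits fall short of that in this replicate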
HIV Env fusion – HIV envelope-mediated fusion inhibition; HeLa-JRFL Env/CEM21 cell fusion, luciferase; inhibition, % at 12.3 µM; 360,000 tested, 1.1% active; AID 651610;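 active means mean replicate inhibition score of at least 50 and every replicate individually at or above 50; inconclusive means only one of the two criteria met; inactive means mean below 50 and not all replicates reaching 50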;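 further: 0% = plate neutral controls and 100% = maraviroc near 300 nM; one replicate is shown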
Rce1 inhib – inhibitors of yeast Ras-converting enzyme; Q03530; yeast membranes, quenched prenylated peptide cleavage fluorescence; calls only; 290,000 tested, 0.27% active; AID 2563;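 active means fall in fluorescence gain of 50% or more versus controls, with final raw signal at or below 3038400; inconclusive means same 50% fall but final raw signal above 3038400; inactive means fall in fluorescence gain under 50%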;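 further: plate controls were neutral control wells for no effect and wells lacking membranes for full effect; tested at 10 µM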
CSC inhib – blocks cancer stem cells. cancer stem cell-like cells viability, luminescence. inhibition, % at 7.5 µM. 300,000 tested, 1.1% active;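 active means mean at 75% or more and at least half the replicates too; inconclusive means mean and replicates disagree; tested in HMLE shEcad cells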;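 further: 0% = median of negative and 100% = median of positive control wells; the first replicate is given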
eIF4H FP inh retest – second read-out of eIF4H FP inh, no call of its own (marks repeat the call); inhibition, %; compound at 20 µM; confirmation average;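 mean of two retest wells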
PABP FP inh retest – recorded beside PABP FP inh, whose call it bears; inhibition, %; compound at 20 µM; confirmation repeats;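 mean of two retest wells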
MT1-MMP act inh RFP – recorded beside MT1-MMP act inh, whose call it bears; RFP signal change, %; measured here: RFP expression control read;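 0 = vehicle wells; hits needed this value within 50% of zero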
Numbers without * were called inactive; i = inactive; ? = inconclusive; nt = not tested or not shown.

SMILES	eIF4H FP inh	PABP FP inh	MT1-MMP act inh	MT1-MMP act inh RFP	UUG fidelity	HIV Env fusion	Rce1 inhib	CSC inhib	others
C/C(=N\NC(=O)c1c(C)nc2ccccn12)c1ccc(C(C)(C)C)cc1	2	-9	10	2	-27	-12	i	26
CCC(C)(C)C1CCC2(CC1)NC(=O)N(CC(=O)Nc1cc(C(F)(F)F)ccc1N1CCOCC1)C2=O (stereo not given)	-7	1	2	-3	-2	4	i	5
N/C(=N\OC(=O)c1ccc2c(c1)OCO2)c1ccc([N+](=O)[O-])cc1	1	3	3	3	-9	-35	i	-7
COc1ccc(NC(=O)C(=O)NCC(c2ccco2)N2CCc3ccccc32)cc1 (stereo not given)	nt	nt	-1	-3	-6	nt	i	35
CCC(=O)NCc1c(Cl)cccc1-n1cccc1	-13	-5	-4	-1	nt	nt	i	0
Oc1ccc(Br)cc1-c1cc(-c2ccccc2)n[nH]1	1	-12	-2	-3	0	nt	i	120*
COc1ccc(F)cc1C(=O)C1CCCN(C(=O)CCc2ccccn2)C1 (stereo not given)	-4	1	0	2	-15	7	i	-12
O=c1cc(-c2ccccc2)cc(-c2ccccc2)n1O	nt	nt	4	4	-65	-42	i	-3
COc1ccc(CCNC(=O)c2cc(-c3cc(Cl)ccc3O)n[nH]2)cc1OC	6	11	5	-2	3	10	i	nt
Cc1cc(C)c2c(N)c(C(=O)c3ccc(Cl)cc3Cl)sc2n1	-4	16	-4	-8	nt	nt	i	11
CC(C)(C)CN1CCN(Cc2cccnc2)CC1CCO (stereo not given)	-6	3	-2	1	-5	1	i	0
O=S(c1ccccc1)c1ccccc1	nt	nt	-1	0	-11	-10	nt	nt
CCOC(=O)C1CCN(S(=O)(=O)c2ccc3c(c2)CCCN3C(C)=O)CC1	-9	-6	3	-2	-7	nt	i	14
O=[N+]([O-])c1ccc(N2CCN(S(=O)(=O)c3ccccc3)CC2)cc1	-7	-7	9	-1	-1	-11	i	-7
CN(C)CCNC(=O)Cn1ccc2cc(S(=O)(=O)N3CCCCCC3)ccc21	-6	4	-3	1	-17	-9	i	-8
Cc1noc(N)c1C(=O)Nc1ccccc1F	1	0	7	4	nt	nt	i	-9
Cc1nnc(C)n1/N=C/c1ccc2c(c1)OCCO2	-4	3	2	2	9	-41	i	-10
Cn1cccc1C(=O)NNC(=O)c1ccccc1Br	nt	nt	5	2	nt	nt	i	-9
O=C(CSc1nc2ccc(Cl)cc2[nH]1)c1ccc2c(c1)OCO2	-7	-8	-1	3	-15	nt	i	-7
S=C(NCCNCc1ccccc1)NC1CCCCC1	-8	-6	nt	nt	nt	nt	i	47
Cc1ccc(-n2nc(C)c3c2OC(N)=C(C#N)C3c2ccncc2)cc1 (stereo not given)	8	11	3	0	-33	4	i	10
Cc1ccc(Nc2nc3c(s2)CCC3)c(C)c1	1	5	-7	1	-13	-138	i	3
C=CCC(NCc1ccccc1)c1ccccc1 (stereo not given)	1	-7	-1	1	nt	9	i	7
O=C(CCN1c2ccccc2Sc2ccccc21)Oc1ccccc1	-2	-5	1	2	nt	-3	i	-12
C/C(N)=C(/C#N)C(=O)COC(=O)c1cc(-c2cccc(Br)c2)nc2ccccc12	2	-5	-5	-5	nt	23	i	22
CCn1c(SCC(=O)Nc2ccccc2)nc2ccccc2c1=O	-12	-2	-6	-3	-13	-19	i	-10
O=C(NCc1ccc2c(c1)OCO2)C1CCC(CNc2c(N3CCCC3)c(=O)c2=O)CC1 (stereo not given)	-14	-2	2	7	11	-9	i	-2
COc1ccc(NC(=O)CCC(=O)c2ccc(Cl)cc2)cn1	nt	nt	-6	3	14	-11	nt	nt
COC(=O)c1ccc(CNC(=O)CCC(=O)N2CCOCC2)cc1	nt	nt	-7	-3	6	5	nt	-13
O=C(Cc1ccccc1)Nc1nnc(-c2ccco2)o1	-8	-9	nt	nt	nt	8	i	nt
CC(C)c1ccc(/C=C/c2[nH]c(=O)[nH]c(=O)c2[N+](=O)[O-])cc1	-7	0	-3	-9	-3	-9	i	29
Cc1ccc(-n2nc(C)c3c(C)c(CCC(=O)NCc4ccco4)c(C)nc32)cc1	6	1	-4	-11	-14	?	i	6
Cc1csc(NC(=O)CSc2nnc(CCNC(=O)c3ccc(Cl)c(Cl)c3)n2C)n1	-5	2	1	-1	-12	-4	i	-18
O=C(CCNC(=O)N1CC(=O)Nc2ccccc21)NCc1cccc(Cl)c1	-13	11	0	-2	-27	-3	i	-13
CCCNC(=O)c1cc(S(=O)(=O)N2CCc3ccccc32)cn1C	3	100	-6	-25	-7	33	i	12	eIF4H FP inh retest=7;PABP FP inh retest=8
O=C1CC(C(F)(F)C(F)(F)C(F)(F)F)=Nc2ccccc2N1	-9	8	0	6	-21	4	i	-3
COc1ccccc1NC(=O)Nc1ccc(C(N)=O)cc1	-1	2	5	3	nt	-14	i	-10
CCN(CC)C(=O)C(=O)Nc1cccc(Br)c1	-3	-11	1	9	nt	-1	i	-3
COc1cccc(CCNC(=O)CC2C(=O)NCCN2CC(C)(C)C)c1 (stereo not given)	0	13	2	9	nt	0	i	-11
CCN1CCN(S(=O)(=O)c2ccc3ccccc3c2)CC1	-6	0	3	7	-11	nt	i	nt
Cc1cc(C)nc(/N=C(\N)N(Cc2ccccc2)Cc2ccccc2)n1	-3	-9	-4	-4	-6	1	i	-1
CCC(=O)NCCCc1nc2ccccc2n1Cc1ccccc1F	-9	63*	-1	2	4	6	i	1	eIF4H FP inh retest=44;PABP FP inh retest=72*
COc1ccc(CNC(=O)CCNS(=O)(=O)c2cccc3nsnc23)cc1	2	-14	2	1	nt	15	i	-5
Clc1ccc(-c2ccc(SCc3ccccn3)nn2)cc1	4	-6	0	-5	-26	-119	i	-6
COc1ccc(N(C(=O)CCl)C(C(=O)NCCc2ccccc2)c2cccs2)cc1Cl (stereo not given)	0	-8	-25	-37	nt	42	i	109*
Cc1ccc(NC(=O)COC(=O)Cn2cnc3c2c(=O)n(C)c(=O)n3C)cc1	nt	nt	4	-1	12	-23	nt	nt
O=C(O)C1CCCCC1C(=O)Nc1cccc(Cl)c1Cl (stereo not given)	-2	-4	0	3	-2	-28	i	1
Cc1ccc(/C=N/NC(=O)c2nnn(-c3nonc3N)c2CNc2ccccc2)cc1	-19	4	1	4	20	1	i	-5
O=C(Oc1ccc(C(=S)N2CCOCC2)cc1)c1ccccc1	5	-10	-2	1	nt	-15	i	-14
CC(C)Oc1ccc(C(CCN)C2CCCCC2)cc1 (stereo not given)	3	-9	-8	-13	7	1	i	31

Next section
SMILES	eIF4H FP inh	PABP FP inh	MT1-MMP act inh	MT1-MMP act inh RFP	UUG fidelity	HIV Env fusion	Rce1 inhib	CSC inhib	others
COC(=O)c1ccc2nc(-c3ccc(OC)c(OC)c3)c(Cc3ccc(OC)cc3C)n2c1	nt	nt	0	0	-9	-9	nt	nt
CCOC(=O)C1(CCCc2ccccc2)CCN(S(C)(=O)=O)CC1	-7	-1	1	-10	-2	11	i	-12
CCOc1ccc(C(=S)N2CCOCC2)cc1OC	0	-3	5	12	-10	nt	i	-9
Cc1ccc(N(C(=O)c2ccc(S(=O)(=O)N(C)C)cc2)C2C=CS(=O)(=O)C2)cc1 (stereo not given)	0	15	-2	2	nt	4	i	-9
COc1ccc(CNC(=O)COC(=O)c2ccc3ccccc3n2)cc1	nt	nt	-1	7	-7	-9	nt	-7
Cc1sc2ncnc(NCCCO)c2c1C	-1	-6	0	-1	-8	10	i	8
Cc1ccc(S(=O)(=O)NCc2nc3ccccc3[nH]2)cc1	-8	-8	5	-1	-19	1	i	-5
COCCOC(=O)C1=C(C)NC2=C(C(=O)CC(C)(C)C2)C1c1cc2c(cc1Br)OCO2 (stereo not given)	-6	-4	1	-2	19	nt	i	-5
CCOC(=O)/C(C#N)=C\c1ccc2c(c1)OCO2	nt	nt	9	6	-7	16	i	-3
Cc1ccc(C2(C)NC(=O)N(CC(=O)N3CCN(S(=O)(=O)c4cccs4)CC3)C2=O)cc1 (stereo not given)	nt	nt	-5	-1	-14	-42	i	nt

For convenience, part of the list above.
SMILES	eIF4H FP inh	PABP FP inh	MT1-MMP act inh	MT1-MMP act inh RFP	UUG fidelity	HIV Env fusion	Rce1 inhib	CSC inhib	others
COc1ccc(CNC(=O)COC(=O)c2ccc3ccccc3n2)cc1	nt	nt	-1	7	-7	-9	nt	-7
Cc1sc2ncnc(NCCCO)c2c1C	-1	-6	0	-1	-8	10	i	8

(next part)
SMILES	eIF4H FP inh	PABP FP inh	MT1-MMP act inh	MT1-MMP act inh RFP	UUG fidelity	HIV Env fusion	Rce1 inhib	CSC inhib	others
O=[N+]([O-])c1ccc(C[n+]2cc(-c3ccc(Cl)c(Cl)c3)n3c2CCCCC3)cc1	-1	8	-4	0	nt	2	i	7
Cc1cccc(C)c1OCC1CNC(=O)O1 (stereo not given)	-13	-7	0	2	-18	10	nt	8
Nn1c(SCC(=O)Nc2ccc(F)c(F)c2)nnc1C1CCCCC1	3	-6	1	4	-17	35	i	-7
CC(=O)Cn1cnc2scc(-c3ccc(C)c(C)c3)c2c1=O	0	2	-2	-4	2	8	i	-1
COc1cc2c(cc1OC)C1(NCC2)C(=O)Nc2ccccc21 (stereo not given)	4	-3	-2	4	-4	-10	i	-6
O=C(Nc1cccc(C(F)(F)F)c1)C1(c2ccccc2)CC1	-2	-9	1	6	nt	nt	i	-3
CNC(=O)c1c(NC(=O)CCS(=O)(=O)c2ccc(F)cc2)sc(C)c1C	nt	nt	7	-1	-20	10	i	4
CCN1CCN(c2nc(Nc3ccc(C)c(C)c3)nc(N)c2[N+](=O)[O-])CC1	-1	6	-2	-5	nt	-34	i	2
CN1CCN(C(=O)C2CCC(=O)N(Cc3cccc(C(F)(F)F)c3)C2)CC1 (stereo not given)	4	0	1	3	20	-4	i	-11
CCc1cc2c(=O)[nH]c(-c3ccncc3)nc2s1	-1	1	-3	-2	nt	-26	i	-13
COc1cc(OC)c(NC(=O)Cn2cccc2)cc1Cl	1	-8	4	1	-13	-78	i	1
CC1(C)N([O-])C(c2ccccc2)=C[N+](=O)C1(C)C	-4	-10	2	2	nt	-5	i	-17
O=C(CCc1nc2ccccc2c(=O)[nH]1)OCc1nnc(-c2ccccc2)o1	5	8	6	4	9	nt	i	-14
C=CCSc1ncccc1C(=O)NCCc1ccc(Cl)cc1	0	6	-3	-4	-5	1	i	-12
Clc1ccc(OCCN2CCOCC2)cc1	0	-8	0	-1	6	-25	i	38
O=c1[nH]c2ccccc2cc1-c1noc(-c2cccnc2)n1	0	3	-2	-1	2	-124	nt	-8
CCN1C(=O)C(C)S/C1=N\S(=O)(=O)c1ccc(F)cc1 (stereo not given)	0	8	5	7	nt	-5	i	1
Cn1ccnc1SCC(=O)c1c(N)n(C)c(=O)n(C)c1=O	nt	nt	0	3	-3	5	nt	-19
Cn1cnnc1SCC(=O)Nc1ccc(Br)cc1F	4	-3	-4	-4	-18	-50	i	-8
CCc1nnc(NC(=O)c2ccc(-c3cccc(C(F)(F)F)c3)o2)s1	-3	2	3	5	-14	-9	nt	14
N/C(=N\NS(=O)(=O)c1ccccc1C(F)(F)F)c1ccccn1	8	3	1	-5	-24	-3	nt	5
CSCc1ccc(C(=O)NCc2ccc(C)cc2)cc1	-8	-10	3	8	-10	-1	i	0
O=C(COC(=O)c1cccnc1Cl)NC(=O)NC1CCCCC1	nt	nt	1	2	-11	-9	nt	-10
Nc1c(C=C2C=CC(=O)C=C2)c(=O)nc2sc(CC(=O)N3CCCCC3)nn12	nt	nt	-3	2	-24	2	i	-1
Cc1cccc(NC(=O)Nc2ccc(Br)cc2)n1	-6	-5	-1	-2	-18	-44	i	7

Screens as filed in PubChem BioAssay.
